ALR H2O2 inh: inhibitors of human ALR sulfhydryl oxidase, primary screen, biochemical, H2O2 detection, HRP-luminol luminescence, single point; FAD-linked sulfhydryl oxidase ALR (Homo sapiens), P55789; purified ALR, DTT oxidation; inhibition, % (no concentration beside the values); 290,000 tested, 3.8% active; AID 485317, 2010;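 active = mean and each replicate at 75% or more; inconclusive = only one of the two met; inactive = neither met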;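 note: stock transfer was 7.5 nL into about 7.5 µL; 0% = neutral wells and 100% = wells with inactivated enzyme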
Target sequence (P55789 whole entry, looked up): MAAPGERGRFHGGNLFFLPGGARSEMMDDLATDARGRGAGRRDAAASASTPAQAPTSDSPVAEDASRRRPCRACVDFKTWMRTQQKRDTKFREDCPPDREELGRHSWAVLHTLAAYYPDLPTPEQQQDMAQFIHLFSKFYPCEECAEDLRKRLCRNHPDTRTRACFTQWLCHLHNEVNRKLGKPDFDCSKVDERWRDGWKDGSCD
Beta2AR agonist: beta2AR agonists driving receptor internalization, primary screen, cell-based, FAP fluorogen, flow cytometry. 340,000 tested, 0.43% active. response, % (concentration not given with the values). Am2.2-beta2AR cells; reference of the scale not given here. AID 504454, 2011;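 active = response above a set limit, near 3 SD of response in nonfluorescent compounds, cut at about 42% in these data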;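 note: stock transfer was 100 nL into about 11 µL; a reference agonist was the positive control; negative values mostly stem from fluorescent compounds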
Target sequence (P07550 whole entry, looked up): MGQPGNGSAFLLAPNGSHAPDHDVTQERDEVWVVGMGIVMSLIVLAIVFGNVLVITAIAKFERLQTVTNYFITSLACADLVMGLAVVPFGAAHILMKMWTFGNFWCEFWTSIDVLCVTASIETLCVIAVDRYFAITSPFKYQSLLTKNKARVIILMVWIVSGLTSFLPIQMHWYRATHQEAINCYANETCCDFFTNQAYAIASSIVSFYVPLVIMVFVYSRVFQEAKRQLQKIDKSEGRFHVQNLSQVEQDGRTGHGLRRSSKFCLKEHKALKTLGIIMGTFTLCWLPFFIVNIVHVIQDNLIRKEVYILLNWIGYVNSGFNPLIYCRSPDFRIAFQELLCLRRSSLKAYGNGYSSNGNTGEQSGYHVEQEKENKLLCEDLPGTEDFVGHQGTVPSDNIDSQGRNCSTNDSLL
RanGTP-Impb inh: inhibitors of RanGTP-importin-beta interaction, primary screen, biochemical, FRET, CFP-Ran, YFP-importin-beta, homogeneous; cell-free CFP-Ran/YFP-importin-beta FRET ratio; inhibition, % (no concentration beside the values); 300,000 tested, 1.1% active; AID 2216, 2009;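 active = most replicates above 15%; inconclusive = exactly half above 15%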;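 note: 0% = DMSO wells and 100% = Ran loaded with GDP instead of GTP; wells of about 40 µL received 100 nL stock; the first replicate is given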
Calb FLC: C. albicans growth inhibition with fluconazole, primary screen, CaCi-2 strain, Alamar Blue fluorescence; AID 1979, 2009; 300,000 tested, 0.57% active; C. albicans CaCi-2 (fluconazole-resistant clinical isolate) + fluconazole, 48 h; growth inhibition, % (no concentration beside the values);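 active = most replicates above 75%; inconclusive = exactly half above 75%; inactive = most below 75%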;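 note: all wells also contain fluconazole at 8 µg/ml as a sub-toxic cotreatment; 0% = median of DMSO wells and 100% = median of geldanamycin control wells; wells of about 8 µL received 7.5 nL stock; the first replicate is given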
HNF4A DNA FP: change in binding of human HNF4A to DNA, primary screen, biochemical, fluorescence polarization, FITC-DNA; Hepatocyte nuclear factor 4-alpha (Homo sapiens), P41235; 1 h; activity change, % at 10 µM; 360,000 tested, 0.3% active; AID 1224865, 2016; in the data active = activity change above about 30%, passing the limit was not always enough;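 note: controls were the assay level and a saturating level of protein; the project sought stronger binding though the title names inhibitors; some compounds called inactive have numbers as strong as hits; positive values seem to mean higher polarization but the record does not say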
Target sequence (P41235 whole entry, looked up): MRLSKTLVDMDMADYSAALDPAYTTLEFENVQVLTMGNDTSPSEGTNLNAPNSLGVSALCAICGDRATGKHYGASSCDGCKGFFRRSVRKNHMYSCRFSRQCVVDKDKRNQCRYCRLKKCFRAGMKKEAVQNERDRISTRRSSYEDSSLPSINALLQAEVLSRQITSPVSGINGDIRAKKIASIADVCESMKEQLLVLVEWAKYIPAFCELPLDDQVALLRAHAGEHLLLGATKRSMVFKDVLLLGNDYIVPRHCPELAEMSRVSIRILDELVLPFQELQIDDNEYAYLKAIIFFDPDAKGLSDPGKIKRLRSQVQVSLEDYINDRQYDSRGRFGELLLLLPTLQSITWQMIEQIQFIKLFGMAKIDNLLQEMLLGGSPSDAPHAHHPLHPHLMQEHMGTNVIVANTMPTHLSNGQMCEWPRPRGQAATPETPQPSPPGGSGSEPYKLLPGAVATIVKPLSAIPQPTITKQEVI
Vif TR-FRET: inhibitors of Vif binding to APOBEC3G peptide, primary screen, biochemical, TR-FRET, GST-Vif 1-94, biotin-A3G peptide, dose response retest (AID 1117319); TR-FRET GST-Vif / biotin-A3G peptide binding; higher % means a stronger effect; test concentration not given here; strong numbers were not always called active; Virion infectivity factor (Human immunodeficiency virus type 1 group M subtype B (isolate …; 260,000 tested, 0.57% active; inhibition, %, or IC50 in µM where a hit was titrated;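 active = above the screen mean plus three standard deviations and confirmed in dose response; inconclusive = results disagree or hit not tested in dose response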;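 note: Vif residues 1-94 fused to GST binding biotinylated APOBEC3G peptide 110-148; 0% = full assay without inhibitor and 100% = GST in place of GST-Vif; retest series ran down from 100 µM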
LANA-H2A inh: blockers of LANA interaction with H2A/H2B – biochemical, FP readout, HTS, primary screen. cell-free LANA-H2A/H2B peptide, fluorescence polarization. AID 2629, 2010. inhibition, % (test concentration not listed). 320,000 tested, 0.6% active. Protein LANA1 (Human herpesvirus 8 type P (isolate GK18)), Q9QR71; in the data active = inhibition mostly above about 10%, no sharp cut-off; inactive = mostly below about 6.7%;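 note: stock transfer was 7.5 nL into about 10 µL; 0% = median of vehicle wells and 100% = median of positive control wells; one replicate is shown; the record names a cut of 25% in any replicate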
Numbers without * were called inactive; ? = inconclusive; · = not tested or not shown.

Molecule	ALR H2O2 inh	Beta2AR agonist	RanGTP-Impb inh	Calb FLC	HNF4A DNA FP	Vif TR-FRET	LANA-H2A inh
N#CCCCCN1CCCC1	-5.8	2.7	-4.7	1.3	1.3	-4.6%	4.6
COc1ccc(OCCC(=O)OCC(=O)Nc2cccc(Br)c2)cc1	3.8	6.1	-0.7	21.8	4.5	·	1.4
O=C(COC(=O)Cc1ccc(Br)cc1)NC12CC3CC(CC(C3)C1)C2	-16.1	-2.7	-0.1	·	-0.1	13.5%	-7.0
CC1CCN(c2nc3ccc(C(=O)NCCCN4CCCCC4)cc3s2)CC1	9.2	2.5	0.7	-15.0	2.9	·	-1.3
Cc1cc(NS(=O)(=O)c2ccc(NC(=O)CSc3nc4ncccc4[nH]3)cc2)nc(C)n1	98.9*	0.3	4.0	0.1	1.3	3.7%	0.7
CCOC(=O)c1c(N)sc(C(N)=O)c1C	-0.6	3.1	3.0	-5.8	5.2	-10.3%	1.8
O=C(/C=C/c1cc(Br)ccc1O)c1ccco1	96.9*	85.7*	-0.6	93.0*	0.9	-1.4%	-1.2
Nc1nonc1-n1nnc(C(=O)N/N=C/c2ccc(Br)cc2)c1CSC1=NCCS1	·	-14.1	-0.6	2.0	-1.2	?	·
CN(CC(=O)N1CC=C(c2ccccc2)CC1)S(=O)(=O)c1cnc[nH]1	-5.7	-6.5	2.9	20.2	0.7	5.4%	5.8
Cc1cccc(-n2nc(CC#N)c(C#N)c2N)c1	19.8	-7.0	1.4	22.3	-0.4	28.0%	-10.8
Cc1ccc(N2C(=O)C3C(C2=O)N2CCCN2C3c2ccccc2)cc1C (centres undefined)	-3.0	-8.9	-2.1	8.0	-1.0	-2.9%	-0.3
Cn1c(=O)c2c(nc(SCc3ccc(F)cc3)n2C)n(C)c1=O	-2.8	2.8	3.7	-4.7	0.1	-4.5%	-1.3
C=CCN1C(=O)/C(=C/c2ccc(OC(C)=O)c(OCC)c2[N+](=O)[O-])SC1=S	·	25.9	-3.1	55.7	34.8	·	·
CCCC(=O)OCC(=O)Nc1ccccc1C#N	-38.9	-6.2	-3.8	14.5	2.1	·	0.1
CC(C)(C)c1ccc(-c2n[nH]c(=S)n2Cc2ccccc2)cc1	·	0.3	?	7.2	-1.1	·	-1.4
Cc1cc(C)cc(N(CC(=O)Nc2ccc(C)cc2Cl)S(=O)(=O)c2c(C)[nH]c(=O)[nH]c2=O)c1	19.2	-2.6	3.4	8.2	-0.8	·	·
COC(=O)CN(c1ccc(OC)cc1OC)S(=O)(=O)c1ccccc1[N+](=O)[O-]	-17.9	2.9	-2.9	8.7	-5.7	-4.7%	-12.2
COc1ccc(C2CC(=O)c3ccccc3O2)cc1 (centres undefined)	-8.9	2.4	5.1	-16.9	1.6	18.3%	-3.2
CCN1/C(=C\c2ccc3ccccc3[n+]2CC)Sc2cc(C)ccc21	35.5	·	·	·	81.5*	-43.4%	-172.9
COc1ccc(-c2cc(C(=O)Nc3ccc(OC)c(OC)c3)no2)cc1	1.0	-0.9	1.2	-5.9	4.4	-5.6%	-1.1

Other entries follow:
Molecule	ALR H2O2 inh	Beta2AR agonist	RanGTP-Impb inh	Calb FLC	HNF4A DNA FP	Vif TR-FRET	LANA-H2A inh
COc1ccc(CC(=O)Nc2ccc(S(=O)(=O)Nc3nccc(C)n3)cc2)cc1	-16.4	3.1	0.2	-0.5	3.1	0.1%	5.4
O=C(Nc1cccc(-c2nc3cc(Cl)ccc3o2)c1)C1CCCO1 (centres undefined)	3.8	-7.2	0.9	0.1	-0.1	?	-5.5
CCOc1cc(/C=C/c2ccc3cccc([N+](=O)[O-])c3n2)cc(Cl)c1O	2.8	2.2	?	-2.3	1.6	11.9%	2.1
O=c1[nH]nc(-c2ccc(NCCCO)c([N+](=O)[O-])c2)c2ccccc12	0.7	-0.1	-1.4	-3.3	-0.1	2.1%	3.2
Cn1cccc1-c1cc(C(=O)N2CCc3c([nH]c4ccccc34)C2c2ccccn2)[nH]n1 (centres undefined)	29.3	17.1	2.4	97.7*	1.4	·	-0.7
O=C(c1cc(COc2ccc(-n3cncn3)cc2)on1)N1CCCC1	·	1.1	2.0	20.8	3.1	·	4.4
CCCC/C(C)=N/NC(=O)c1cn(-c2ccccc2)nc1-c1ccccc1	0.3	-22.8	-2.2	8.1	-1.3	·	-2.5
COc1ccc(CNS(=O)(=O)c2ccc(-n3cccn3)cc2)cc1	-9.3	-23.2	0.0	17.4	0.2	-0.3%	-1.3
Cc1ccc(-n2nnnc2SCC(=O)N2c3ccccc3NC(=O)C2(C)C)cc1	-8.2	-4.5	?	16.2	-0.6	4.2%	3.2
COc1cc(CNc2ccc(NC(C)=O)cc2)ccc1OCc1ccccc1C	41.5	2.5	-0.8	5.8	1.5	·	-0.6
COc1ccc(CN2C(=NC(=O)C3CCCO3)SC3CS(=O)(=O)CC32)cc1 (centres undefined)	3.7	-7.3	-1.6	-7.5	2.1	4.7%	2.7
CCCc1[nH]c(=O)c(C#N)c2c1COC(C)(C)C2	-4.0	6.2	2.6	-4.3	-0.5	0.9%	-8.0
COc1cc(NC(=O)Cn2cnc(S(=O)(=O)N3CCc4ccccc43)c2)cc(OC)c1OC	-11.3	4.3	-1.6	11.7	3.5	·	1.4
COc1ccc2cc(CCNC(=O)c3ccc4c(c3)OCO4)c(=O)[nH]c2c1	16.2	3.8	-2.5	-3.7	0.6	6.0%	1.2
CN=C1SC(CC(=O)Nc2ccccc2F)C(=O)N1C (centres undefined)	-25.6	-9.7	-0.3	0.6	0.4	2.3%	-0.3
COc1ccccc1CCC(=O)Nc1nc2ccccc2[nH]1	-1.9	-17.0	-3.3	-36.7	0.8	-6.5%	-3.5
COC(=O)C1=C(COc2ccc(C=O)cc2OC)NC(=O)NC1c1cc(C)ccc1C (centres undefined)	1.7	2.1	8.4	0.7	4.3	?	-0.6
CC(NC(=O)CN(C1CCCCC1)S(C)(=O)=O)c1ccccc1 (centres undefined)	-2.9	-1.6	-1.0	-0.6	0.9	·	-2.7
CCC(=O)Nc1ccc(C(=O)N/N=C/c2c(C)[nH]c3ccccc23)cc1	6.5	-1.2	-8.1	-3.9	17.9	-6.0%	1.7
O=C(c1ccccc1CCc1ccccc1)N1CCN(c2ccccn2)CC1	-16.1	-8.1	1.3	2.0	-1.3	-0.1%	-2.7

The list continues.
Molecule	ALR H2O2 inh	Beta2AR agonist	RanGTP-Impb inh	Calb FLC	HNF4A DNA FP	Vif TR-FRET	LANA-H2A inh
Nc1ncnc2c1ncn2[C@@H]1O[C@H](COS(=O)(=O)O)[C@@H](O)[C@H]1O	1.2	0.0	·	·	-1.9	·	-1.4
CN1CCN(CCNC(=O)c2ccc3nc(-c4ccc(F)cc4)c(-c4ccc(F)cc4)nc3c2)CC1	0.2	19.0	1.3	-9.6	5.2	·	0.1
CC(=O)NCCOC(=O)Nc1ccncc1	-5.4	4.8	-3.6	-1.1	-2.8	1.1%	0.2
CCCn1c(=O)c(C(=O)NC(C)c2ccccc2)c(O)c2ccccc21 (centres undefined)	-5.8	7.3	-2.8	-0.9	0.6	-6.8%	0.9
CCc1cc(C(=O)N2CCOCC2)c(NC2=NS(=O)(=O)c3ccccc32)s1	-1.4	-0.3	0.3	?	1.7	16.6%	-0.3
Cc1cc(Nc2ncc(Cl)cc2Cl)n(-c2ccccc2)n1	0.9	-6.7	-1.7	-3.0	-2.8	6.0%	-8.4
S=C(Cc1ccccc1)NCCc1ccccc1	-15.3	-5.6	-3.8	-0.5	0.0	·	1.9
CC(=O)c1cc2c(cc1NC(=O)c1cc3nc(C(C)C)cc(C(F)(F)F)n3n1)OCO2	-4.7	-5.2	-1.2	-3.5	1.7	-3.3%	2.1
CS(=O)(=O)c1ccccc1C(=O)Nc1ccc(-c2nc3ccccc3[nH]2)cc1	-6.5	-3.2	1.9	-3.2	1.8	·	5.3
CC1(C(=O)N/N=C/c2c(F)c(F)c(F)c(F)c2F)CC1(Cl)Cl (centres undefined)	2.4	28.8	?	-13.0	3.6	·	5.0
CCc1ccc(CNC(=O)CCc2nc(-c3cccs3)no2)cc1	-0.4	-4.3	6.4	-1.5	0.9	10.7%	-0.6
CC(C)n1cnc2cc(NCc3ccco3)ccc21	83.9*	7.1	-1.7	26.4	-0.9	?	-9.4
O=C(c1nc2ncccn2n1)N1CCN(c2ccc(F)cc2)CC1	27.7	0.2	7.0	-7.6	-0.9	2.5%	0.5
CCc1ccc2oc(-c3cccc(N)c3)nc2c1	·	6.5	11.0	13.3	0.7	16.5%	-1.7
CN(C)S(=O)(=O)n1cc(/C=C(\NC(=O)c2ccccc2F)C(=O)NCCCN2CCOCC2)c2ccccc21	-2.0	1.3	?	-9.7	7.1	-5.0%	0.9
CCn1cnc2c1c(=O)n(Cc1cccc([N+](=O)[O-])c1)c(=O)n2Cc1ccccc1	·	-8.8	-1.7	-8.0	3.3	·	2.1
CCOC(=O)C1=C(COC(=O)Cc2ccc(OC)c(OC)c2)NC(=O)NC1C (centres undefined)	1.5	6.4	·	·	2.1	-7.4%	4.6
Cc1c(Cl)cccc1N/C(=N/S(=O)(=O)c1cccs1)c1ccccc1	-20.6	2.0	5.8	2.1	0.3	2.9%	-2.6
COc1ccc(/C(N)=N/OC(=O)c2ccco2)cc1OC	-5.4	-5.2	-0.4	2.8	-2.0	2.1%	0.7
Cc1cc(C)n(-c2nnc(C)n2NS(C)(=O)=O)n1	·	1.0	0.9	-3.4	-1.0	-4.1%	-0.2

(listing goes on)
Molecule	ALR H2O2 inh	Beta2AR agonist	RanGTP-Impb inh	Calb FLC	HNF4A DNA FP	Vif TR-FRET	LANA-H2A inh
COc1ccc(CNC(=O)CN(C(=O)CCC(=O)Nc2ccccn2)c2cccc(C)c2C)cc1	-69.4	-0.9	2.2	-1.4	1.1	·	2.5
O=C(NCCCNC(=O)c1ccco1)c1ccc(F)cc1	-18.6	-8.2	-0.2	-3.6	0.0	·	-4.5
Cc1cc(/C=N/NC(=O)C(O)(c2ccccc2)c2ccccc2)c(C)n1-c1ccccc1	-3.0	7.8	?	?	5.0	7.2%	-1.7
Cc1ccc(C)c(NC(=O)CN2C(=O)NC(C)(c3ccc4c(c3)OCCO4)C2=O)c1 (centres undefined)	-4.0	-1.6	·	·	1.3	·	-6.7
Cc1nn(-c2ccccc2)c2sc(-c3n[nH]c(=S)o3)cc12	97.8*	11.5	0.1	-3.9	3.3	10.8%	-0.2
Cc1nn(-c2ccccc2)c(C)c1NC(=O)COc1ccc2ccccc2c1	-26.3	7.5	-4.8	2.5	-1.4	1.7%	-1.6
Cc1ccc(-c2cc3c(N=O)c4ccccc4c-3n[nH]2)cc1	-2.3	5.5	?	17.0	8.0	·	8.0
Cc1[nH]n(C(N)=S)c(=O)c1N=Nc1cccc([N+](=O)[O-])c1C	97.9*	3.7	2.2	-15.0	-0.4	·	-3.1
O=C(NNc1nc2cc3c(cc2s1)OCO3)c1ccccc1	99.3*	3.9	-1.2	-3.4	0.1	29.5%	-0.7
Cc1cc(C)n2c(SCC(=O)N(CC(C)C)c3c(N)n(CC(C)C)c(=O)[nH]c3=O)nnc2n1	·	-8.2	2.5	22.9	2.8	1.3%	1.2

Assay outcomes as filed in PubChem.
